High-throughput results from PubChem.
HCMV NEC inh: inhibitors of HCMV UL50-UL53 nuclear egress complex interaction. inhibition, % (concentration not given with the values). HTRF UL50-UL53 interaction, normalized percent inhibition. hit rate 0.15% among 190,000. AID 1918969;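 active = both replicates at 50% or more, plus weaker picks with an unusually low signal ratio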;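 note: stock transfer was 100 nL into about 20 µL; 0% = negative control wells and 100% = wells with untagged competitor protein; inactives centre near -12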
Sa growth 42C: blocks Staphylococcus aureus growth; S. aureus RN4220 growth, OD600, 20 h, 42 °C; active compounds read low; relative growth, % (test concentration not listed); hit rate 0.53% among 170,000; AID 720641;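 active = growth at 42 °C up to 50% and 20 or more points under that at 30 °C, or under 10% at both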;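 note: 300 nL library stock went into each well; scaled to the means of positive and negative controls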
GIV Gai3 FP: blocks GIV peptide binding to rat Galpha-i3 | P08753 | Galpha-i3/FITC-GIV peptide fluorescence polarization, 90 min; active compounds read low; scaled: aluminum fluoride 0%, vehicle 100% | percent of control (FP), % (concentration not given with the values) | hit rate 0.42% among 210,000 | AID 1224905;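 active = replicate mean at 85% of control or lower, very high polarization wells dropped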;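 note: wells of about 15 µL received 100 nL stock; the first replicate is given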
Target sequence (P08753 whole entry, looked up): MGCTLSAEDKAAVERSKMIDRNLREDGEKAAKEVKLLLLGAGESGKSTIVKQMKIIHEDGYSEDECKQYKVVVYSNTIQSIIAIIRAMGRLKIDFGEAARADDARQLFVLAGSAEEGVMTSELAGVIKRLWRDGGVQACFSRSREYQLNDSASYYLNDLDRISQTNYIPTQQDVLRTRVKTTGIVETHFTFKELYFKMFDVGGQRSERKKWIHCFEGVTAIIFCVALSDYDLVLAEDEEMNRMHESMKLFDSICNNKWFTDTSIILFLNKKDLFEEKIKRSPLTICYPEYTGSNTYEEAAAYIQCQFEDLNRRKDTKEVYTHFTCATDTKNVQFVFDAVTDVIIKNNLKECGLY
Sa growth 42C second temp: recorded beside Sa growth 42C, whose call it bears; relative growth, %; measured here: growth at 30 °C;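 optical density after 20 h as mean of two plates; 100% = untreated growth and lower means inhibition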
* hit, by the source's call; nt = not tested or not shown.

Every second line gives: HCMV NEC inh	Sa growth 42C	Sa growth 42C second temp	GIV Gai3 FP
O=C(CCSCc1cnn(-c2ccccc2)c1-n1cccc1)NCC1COCCO1 (stereo unspecified)
 : -16	93	78	105
O=C1NCC(=Nc2ccccc2)C(=O)N1
 : nt	108	89	96
O=C1OC(=Nc2ccccc2)c2ccccc21
 : -10	94	99	nt
O=S(=O)(c1ccc(Br)s1)N1CCC(CN2CCCCC2)CC1
 : -19	nt	nt	108
O=C(CSCCc1ccccn1)Nc1cccnc1
 : nt	124	89	98
Cc1ccc(CSc2ncccc2C(=O)O)cc1
 : nt	122	89	101
Cc1nnsc1C(=O)N(Cc1ccc(Cl)cc1)Cc1ccco1
 : -8	101	85	106
Cc1cc(C)cc(NC(=O)Cc2cccs2)c1
 : -19	88	87	nt
CC(=O)NCCNC(=O)CCc1nc2sc3c(c2c(=O)[nH]1)CCCCC3
 : -27	nt	nt	107
O=S(=O)(c1cc(Cl)ccc1Cl)N1CCNCC1
 : -8	104	89	nt

(next part)
Every second line gives: HCMV NEC inh	Sa growth 42C	Sa growth 42C second temp	GIV Gai3 FP
COC(=O)c1ccc(CS(=O)(=O)c2ccccc2)o1
 : 11	93	76	109
CCOC(=O)C1=C(SCC(=O)Nc2ccccc2)NC(=O)C(C#N)C12CCCCC2 (stereo unspecified)
 : -25	88	83	nt
COc1cccc(-c2nc3c4ccccc4ncn3n2)c1
 : -9	nt	nt	78*
COC(=O)c1c(NC(C)=O)c2c(C)c(C)sc2n1Cc1nc(-c2cccs2)oc1C
 : nt	95	92	109
COCCCNC(=O)CCCn1c(SCC(=O)c2ccc(F)cc2)nc2c(sc3ccccc32)c1=O
 : -19	103	91	97
CCOCCc1nnc(NC(=O)C(=O)c2cc(C)n(-c3ccc(C)cc3C)c2C)s1
 : -8	83	61	95
O=S1(=O)CC(O)C(S(=O)(=O)c2ccc(Cl)cc2)C1 (stereo unspecified)
 : -40	86	80	98
Cc1ccc(CNC2=CC(=O)CC(C)(C)C2)cc1
 : -13	106	90	nt
C=CCN1C(=O)S/C(=C/c2ccc(OC)c(OCC)c2)C1=O
 : -21	108	106	97
O=C(CSc1nnc(NCc2ccccc2)s1)N1CCOCC1
 : -3	86	88	nt

The list continues.
Every second line gives: HCMV NEC inh	Sa growth 42C	Sa growth 42C second temp	GIV Gai3 FP
O=C(NC1CCCC1)c1nc(-c2ccc(Cl)cc2)n2c1CCCCC2
 : nt	67	44	104
Cc1ccc(NC(=O)CNC2CCCCC2)cc1Cl
 : -7	87	109	96
Cc1ccc(CN2CCC(CNC(=O)c3cnn(-c4ccc(C)cc4)c3C3CCN(C(=O)OC(C)(C)C)CC3)CC2)cc1
 : nt	100	104	108
Nn1c(=O)[nH]c2sc3c(c2c1=O)CCCC3
 : 10	83	88	107
O=C(COC(=O)c1ccc(O)cc1)Nc1ccc(N2CCCCC2)cc1
 : -30	100	92	nt
Cc1cc(C)c(S(=O)(=O)NCCn2c(-c3ccncc3)nc3cccnc32)cc1C
 : -24	nt	nt	109
O=C(OC(C(=O)Nc1cc(C(F)(F)F)ccc1Cl)c1ccccc1)c1cccnc1 (stereo unspecified)
 : -39	109	84	nt
CC1CCCN(CCC(=O)c2ccc(Br)cc2)C1 (stereo unspecified)
 : nt	23	29	98
O=C(Nc1ccccc1Cl)c1cc(S(=O)(=O)N2CCC3(CC2)OCCO3)ccc1F
 : nt	99	86	98
CC(C)(C)C(=O)OC1=CN(Cc2ccccc2)S(=O)(=O)c2ccccc21
 : -15	105	83	102

Additional results follow.
Every second line gives: HCMV NEC inh	Sa growth 42C	Sa growth 42C second temp	GIV Gai3 FP
O=C(Nc1ccc2nc(SCC(=O)N3CCc4ccccc43)sc2c1)c1ccccc1
 : -8	99	89	113
Cc1ccc(NC(=S)NCC2CCN(C(C)c3ccccc3)C2)cc1 (stereo unspecified)
 : nt	101	83	103
COc1ccc(N2CCN(C(=O)c3oc4ccccc4c3NC(=O)c3ccccc3OC)CC2)cc1
 : nt	110	106	99
CC(C)N(C(=O)Cc1cccs1)C(C)C
 : -15	105	87	nt
CC1CC(C)CN(C(=O)C(Cc2ccccc2)NS(=O)(=O)c2cccc3nsnc23)C1 (stereo unspecified)
 : nt	114	91	98
Nc1ccc(Oc2ncc(C(F)(F)F)cc2Cl)cc1
 : -19	nt	nt	101
CCOc1ccc(S(=O)(=O)N(CC(=O)N2CCCc3ccccc32)Cc2ccco2)cc1
 : 6	120	96	nt
COc1ccc(-n2nc(C(=O)Nc3ccccc3OC)c3c4ccccc4n(C)c3c2=O)cc1
 : 19	nt	nt	102
O=C1O[C@@H]2C[C@H]3C[C@@H]2[C@@H]1[C@H]3C(=O)Nc1ccc(C(=O)N2CCCCC2)cc1
 : -13	86	84	102
Cn1cnc2onc(C(=O)Nc3ccc(F)cc3)c2c1=O
 : 8	103	96	103

A different layout for part of the listing above.
| smiles | HCMV NEC inh | Sa growth 42C | Sa growth 42C second temp | GIV Gai3 FP |
| --- | --- | --- | --- | --- |
| Cc1ccc(NC(=O)CNC2CCCCC2)cc1Cl | -7 | 87 | 109 | 96 |
| Cc1ccc(CN2CCC(CNC(=O)c3cnn(-c4ccc(C)cc4)c3C3CCN(C(=O)OC(C)(C)C)CC3)CC2)cc1 | nt | 100 | 104 | 108 |
| Nn1c(=O)[nH]c2sc3c(c2c1=O)CCCC3 | 10 | 83 | 88 | 107 |
| O=C(COC(=O)c1ccc(O)cc1)Nc1ccc(N2CCCCC2)cc1 | -30 | 100 | 92 | nt |
| Cc1cc(C)c(S(=O)(=O)NCCn2c(-c3ccncc3)nc3cccnc32)cc1C | -24 | nt | nt | 109 |
| O=C(OC(C(=O)Nc1cc(C(F)(F)F)ccc1Cl)c1ccccc1)c1cccnc1 (stereo unspecified) | -39 | 109 | 84 | nt |
| CC1CCCN(CCC(=O)c2ccc(Br)cc2)C1 (stereo unspecified) | nt | 23 | 29 | 98 |
| O=C(Nc1ccccc1Cl)c1cc(S(=O)(=O)N2CCC3(CC2)OCCO3)ccc1F | nt | 99 | 86 | 98 |
| CC(C)(C)C(=O)OC1=CN(Cc2ccccc2)S(=O)(=O)c2ccccc21 | -15 | 105 | 83 | 102 |
| O=C(Nc1ccc2nc(SCC(=O)N3CCc4ccccc43)sc2c1)c1ccccc1 | -8 | 99 | 89 | 113 |
| Cc1ccc(NC(=S)NCC2CCN(C(C)c3ccccc3)C2)cc1 (stereo unspecified) | nt | 101 | 83 | 103 |
| COc1ccc(N2CCN(C(=O)c3oc4ccccc4c3NC(=O)c3ccccc3OC)CC2)cc1 | nt | 110 | 106 | 99 |
| CC(C)N(C(=O)Cc1cccs1)C(C)C | -15 | 105 | 87 | nt |
| CC1CC(C)CN(C(=O)C(Cc2ccccc2)NS(=O)(=O)c2cccc3nsnc23)C1 (stereo unspecified) | nt | 114 | 91 | 98 |
| Nc1ccc(Oc2ncc(C(F)(F)F)cc2Cl)cc1 | -19 | nt | nt | 101 |
| CCOc1ccc(S(=O)(=O)N(CC(=O)N2CCCc3ccccc32)Cc2ccco2)cc1 | 6 | 120 | 96 | nt |
| COc1ccc(-n2nc(C(=O)Nc3ccccc3OC)c3c4ccccc4n(C)c3c2=O)cc1 | 19 | nt | nt | 102 |
| O=C1O[C@@H]2C[C@H]3C[C@@H]2[C@@H]1[C@H]3C(=O)Nc1ccc(C(=O)N2CCCCC2)cc1 | -13 | 86 | 84 | 102 |
| Cn1cnc2onc(C(=O)Nc3ccc(F)cc3)c2c1=O | 8 | 103 | 96 | 103 |

Next part:
Every second line gives: HCMV NEC inh	Sa growth 42C	Sa growth 42C second temp	GIV Gai3 FP
CC(=O)Oc1ccc(C(=O)Nc2cccc(-c3nc4cc(NC(=O)c5ccc(OC(C)=O)cc5)ccc4o3)c2)cc1
 : 11	nt	nt	106
COc1ccc(-c2nc(CSCC(=O)NC(C)C)c(C)o2)cc1OC
 : -1	77	96	106
CC(C)Cn1cnc2nc(CSc3ccccc3NC(=O)Nc3ccccc3Cl)cc(=O)n21
 : -24	nt	nt	104
c1ccc(-c2nn3c(-c4ccc5ccccc5n4)nnc3s2)nc1
 : -62	nt	nt	103
O=C(CSc1nncn2c1cc1occc12)Nc1ccc(F)c(Cl)c1
 : nt	81	87	117
COc1ccc(Nc2cc(C(=O)NCC3CCCO3)c3ccccc3n2)c(OC)c1 (stereo unspecified)
 : -5	103	96	99
O=C(OCC(=O)C12CC3CC(CC(C3)C1)C2)c1cccs1
 : 9	88	93	nt
Nc1c(C(=O)Nc2ccc(F)c(F)c2)sc2nc(-c3ccncc3)ccc12
 : 2	110	95	124
COc1ccccc1N1CCN(c2ccc(=O)n(CC(=O)N3CCOCC3)n2)CC1
 : -35	nt	nt	98
O=C(c1cccs1)c1cnc2ncccn12
 : -59	87	90	107

(continued)
Every second line gives: HCMV NEC inh	Sa growth 42C	Sa growth 42C second temp	GIV Gai3 FP
COC(=O)c1ccc(NC(=O)CSc2nc3c(c(=O)n(C)c(=O)n3C)n2Cc2ccccc2)cc1
 : -18	109	86	106
Cc1cc(C(=O)CSc2nc(N)c(C#N)cc2C#N)c(C)n1-c1ccc2c(c1)OCO2
 : -30	84	93	nt
CSC(NCc1ccc(Cl)cc1Cl)=C(C#N)C#N
 : -29	23	7	nt
O=C(Nc1c(-c2cccs2)nc2ccccn12)C(c1ccccc1)c1ccccc1
 : nt	98	80	102
CCCC(=O)C1C(=O)C=C(C)OC1=O (stereo unspecified)
 : 1	106	112	95
COC(=O)Nc1cc(C)nc2ccccc12
 : -4	86	85	107
Cc1[nH]nc2cc(F)ccc12
 : 9	94	104	106
CC1Cc2ccccc2N1C(=O)CCS(=O)(=O)c1ccc2c(c1)CCN2C(=O)C1CC1 (stereo unspecified)
 : -36	104	89	100
COCCN(CCOC)S(=O)(=O)c1ccc(C(=O)Nc2nnc(-c3ccc(F)cc3)s2)cc1
 : -25	nt	nt	107
O=C(Nc1nc(-c2ccccc2)ns1)c1ccc(Cl)cc1
 : nt	80	94	99

Next part.
Every second line gives: HCMV NEC inh	Sa growth 42C	Sa growth 42C second temp	GIV Gai3 FP
COc1ccc(NC(=S)Nc2ccc(S(=O)(=O)N3CCOCC3)cc2)cn1
 : -9	90	93	104
COc1ccc2c(c1)c(=O)oc1c(C)c3occ(C)c3cc12
 : nt	88	89	105
CC1CCCCN1c1ccc(NC(=O)c2cccnc2)cc1 (stereo unspecified)
 : -7	102	101	121
COc1cc2ncnc(NNC(=O)c3ccco3)c2cc1OC
 : -46	89	88	103
Cc1cc(C)n(CC(=O)Nc2oncc2-c2ccccc2)c(=O)c1S(=O)(=O)c1ccc(Cl)cc1
 : -14	nt	nt	104
COc1cc(/C=C2/C(=O)N(c3ccc(Br)cc3)N=C2C)cc(OC)c1OC
 : -16	nt	nt	106
Cc1nc(N2CCOCC2)cc(N2CCN(S(=O)(=O)c3ccc4c(c3)OCCO4)CC2)n1
 : 9	nt	nt	100
CC(C)OC(=O)C(Cc1ccccc1)N1COc2ccc3c4c(c(=O)oc3c2C1)CCC4 (stereo unspecified)
 : -14	109	96	109
CCn1nc(C)c(Br)c1-c1nc(-c2cccc(C)c2)no1
 : -28	93	78	107
Cc1ncoc1C(=O)Nc1ccccc1C(F)(F)F
 : nt	92	91	105

Other results
Every second line gives: HCMV NEC inh	Sa growth 42C	Sa growth 42C second temp	GIV Gai3 FP
O=C(CSc1nccn2nc(-c3ccccc3)cc12)Nc1ccc2c(c1)OCCO2
 : -12	nt	nt	105
O=C(NCc1cccnc1)NC1(c2ccccc2)CC1
 : -13	84	86	nt
COc1cccc(CNCc2c(C(=O)O)c(C)n(Cc3ccc(F)cc3Cl)c2C)c1OC
 : -2	122	98	105
CC(/C=C/c1ccc(N(C)C)cc1)=N\N=C(/N)SC1CC(=O)N(c2ccccc2)C1=O (stereo unspecified)
 : -8	111	98	116
Cc1ccc(C(=O)Nc2cccc(-c3nc4ccccc4o3)c2)cc1
 : nt	81	88	118
COc1ccc2c(c1)NC1(CCN(S(=O)(=O)c3cc(F)ccc3F)CC1)c1cccn1-2
 : -4	nt	nt	108
CCOc1ccc(OCC)c(Nc2nc3ccc(C)cc3n3nnnc23)c1
 : 11	97	99	110
Cc1ccc(CNC(=O)c2sc3nc4n(c(=O)c3c2C)CCCCC4)cc1
 : -19	108	103	97
CCOc1ccc(NC(=O)CC2C(=O)N(c3ccccc3)C(=O)N2C2CCCC2)cc1 (stereo unspecified)
 : nt	121	95	111
COC(=O)c1sccc1S(=O)(=O)N(CC(=O)NCc1ccccc1)c1ccc(C)cc1
 : nt	92	88	101

Further entries follow.
Every second line gives: HCMV NEC inh	Sa growth 42C	Sa growth 42C second temp	GIV Gai3 FP
CN1C(=O)/C(=N\OC(=O)c2cccc(F)c2)c2ccccc21
 : -73	95	92	105
CCCCc1nnc2sc(COc3ccccc3OC)nn12
 : -15	nt	nt	108
Cc1ccc(NC(=O)CCNS(=O)(=O)c2ccc(Br)s2)cc1
 : 5	108	91	110
O=C(CSc1ccccc1C(=O)N1CCc2ccccc21)NCc1ccco1
 : -13	98	92	nt
COc1ccc(Sc2cc3c(cc2NS(=O)(=O)c2ccc4c(c2)CCC4)n(C)c(=O)n3C)cc1
 : -25	nt	nt	96
